Rce1 inhib = blocks yeast Ras-converting enzyme; yeast membranes, quenched prenylated peptide cleavage fluorescence; Q03530; AID 2563; calls only; 290,000 tested, 0.27% active;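 active = fall in fluorescence gain of 50% or more versus controls, with final raw signal at or below 3038400; inconclusive = same 50% fall but final raw signal above 3038400; inactive = fall in fluorescence gain under 50%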;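 note: plate controls were neutral control wells for no effect and wells lacking membranes for full effect; tested at 10 µM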
Target sequence (Q03530 whole entry, looked up): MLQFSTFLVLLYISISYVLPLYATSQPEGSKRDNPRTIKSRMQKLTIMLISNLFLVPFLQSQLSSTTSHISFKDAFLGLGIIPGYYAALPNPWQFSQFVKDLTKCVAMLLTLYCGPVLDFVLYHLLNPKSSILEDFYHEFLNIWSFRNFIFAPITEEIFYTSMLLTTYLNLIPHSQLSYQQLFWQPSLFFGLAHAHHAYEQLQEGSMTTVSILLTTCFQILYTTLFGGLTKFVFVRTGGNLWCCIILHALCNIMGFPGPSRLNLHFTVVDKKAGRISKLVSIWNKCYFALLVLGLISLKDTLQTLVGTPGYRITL
CSC inhib = blocks cancer stem cells. 300,000 tested, 1.1% active. cancer stem cell-like cells viability, luminescence. inhibition, % at 7.5 µM;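 active = mean at 75% or more and at least half the replicates too; inconclusive = mean and replicates disagree; tested in HMLE shEcad cells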;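 note: 0% = median of negative and 100% = median of positive control wells; the first replicate is given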
PABP polyA inh = PABP-poly(A) binding inhibition; P11940; PABP-poly(A) RNA binding, fluorescence polarization; inhibition, % at 35 µM; 290,000 tested, 1% active;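 active = 50% or more with normal probe brightness, or confirmed in later tests; inconclusive = above 50% with abnormal brightness, or retests that disagree; inactive = below 50% or failed in later tests; about a fifth of its hits are not listed in these tables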;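 note: calls also rest on retests at 20 µM and on dose response follow-up; controls were probe without protein and protein plus probe with vehicle; some compounds called inactive have numbers as strong as hits; many hits fall short of the cut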
Target sequence (P11940 whole entry, looked up): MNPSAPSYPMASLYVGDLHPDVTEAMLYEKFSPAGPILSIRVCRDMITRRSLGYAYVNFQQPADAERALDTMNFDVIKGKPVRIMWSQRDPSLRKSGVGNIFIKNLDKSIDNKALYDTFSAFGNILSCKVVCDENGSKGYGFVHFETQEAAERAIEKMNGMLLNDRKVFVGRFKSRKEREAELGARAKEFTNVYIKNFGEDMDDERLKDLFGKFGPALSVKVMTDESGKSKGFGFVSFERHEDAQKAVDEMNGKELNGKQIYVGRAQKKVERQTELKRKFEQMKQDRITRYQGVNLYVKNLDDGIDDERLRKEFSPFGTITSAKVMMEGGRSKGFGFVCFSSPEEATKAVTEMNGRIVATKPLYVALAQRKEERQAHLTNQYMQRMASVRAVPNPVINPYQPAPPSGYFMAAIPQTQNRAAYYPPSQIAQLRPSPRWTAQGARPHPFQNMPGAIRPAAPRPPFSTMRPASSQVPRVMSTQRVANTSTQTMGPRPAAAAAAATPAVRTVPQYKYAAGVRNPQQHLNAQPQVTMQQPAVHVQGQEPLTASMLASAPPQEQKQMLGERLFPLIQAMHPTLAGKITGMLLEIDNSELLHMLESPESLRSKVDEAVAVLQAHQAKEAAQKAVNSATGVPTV
eIF4H FP inh = inhibitors of RNA binding by human eIF4H. eIF4H fluorescence polarization binding assay. inhibition, % at 35 µM. 290,000 tested, 0.94% active. AID 2012;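 active = 50% or more with normal probe brightness, or confirmed in later tests; inconclusive = above 50% with abnormal brightness, or retests that disagree; inactive = below 50% or failed in later tests; about a fifth of its hits are not listed in these tables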;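 note: calls also rest on retests at 20 µM and on dose response follow-up; 0% = protein and probe with vehicle and 100% = probe without protein; strong numbers were not always called active; many hits fall short of the cut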
Env fusion inh = inhibitors of HIV Env-mediated cell fusion; HeLa-JRFL Env/CEM21 cell fusion, luciferase; inhibition, % at 12.3 µM; 360,000 tested, 1.1% active;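 active = mean replicate inhibition score of at least 50 and every replicate individually at or above 50; inconclusive = only one of the two criteria met; inactive = mean below 50 and not all replicates reaching 50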;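 note: 0% = plate neutral controls and 100% = maraviroc near 300 nM; one replicate is shown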
MT1-MMP act inh = MT1-MMP (human) activation inhibition; P50281; HT1080 RFP-PRO-GFP cells, GFP/RFP ratio fluorescence, overnight; percent of plate control window, DMSO zero; GFP/RFP ratio change, % at 20 µM; 360,000 tested, 0.061% active;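 active = GFP/RFP ratio change of at least 30% with cell ATP level not reduced by more than half and red fluorescence within 50% of control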; note: strong numbers were not always called active
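Material: RFP-PRO-GFP reporter HT1080 cells. Dosing: single-point 20 µM compound, 1% DMSO. Controls: DMSO and RFP-L50D-GFP cell wells. Timing: cells overnight before dosing, compound overnight, 37 °C, 5% CO2. Measure: GFP/RFP fluorescence ratio.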
UUG fidelity = yeast start codon fidelity modulation; S. cerevisiae UUG-firefly luciferase reporter, luminescence/redox ratio; activity score, % at 18.7 µM; 350,000 tested, 0.13% active;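 active = replicate mean at a twofold rise or more, about +100% in these data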;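 note: firefly luciferase made from a UUG start codon reports start codon fidelity; reporter light over untreated wells divided by growth signal over untreated wells; some hits fall short of that in this replicate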
eIF4H FP inh retest = also measured in eIF4H FP inh; calls as there; inhibition, %; compound at 20 µM; confirmation average;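 mean of two retest wells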
PABP polyA inh retest = recorded beside PABP polyA inh, whose call it bears; inhibition, %; compound at 20 µM; confirmation repeats;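 mean of two retest wells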
MT1-MMP act inh RFP = further read-out of MT1-MMP act inh, marked with its call; RFP signal change, %; measured here: RFP expression control read;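 0 = vehicle wells; hits needed this value within 50% of zero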
The depositor's hits bear a star; & = joins results of further samples; [ ] = another dose, or the depositor's remark.

Screening Cc1ccc(S(=O)(=O)N2CCN(C(=O)N3CCOCC3)C2C(C)C)cc1 (stereo unspecified) returned Rce1 inhib inactive, CSC inhib -11, PABP polyA inh -7, eIF4H FP inh 10, Env fusion inh -28, MT1-MMP act inh 8, UUG fidelity -6 and MT1-MMP act inh RFP 1.
`Cc1ccc(NS(=O)(=O)c2ccc3c(c2)NC(=O)C(C)C(=O)N3)c(Cl)c1` (stereo unspecified) gave Rce1 inhib inactive, CSC inhib 3, PABP polyA inh -6, eIF4H FP inh 19, MT1-MMP act inh -4, UUG fidelity -6 and MT1-MMP act inh RFP 3.
For COc1cc(NC(=O)C2CCN(S(=O)(=O)c3cnc[nH]3)CC2)cc(OC)c1OC the results were Rce1 inhib inactive, PABP polyA inh 0, eIF4H FP inh 1, Env fusion inh -42, MT1-MMP act inh 10 and MT1-MMP act inh RFP -2.
Screening COc1ccc(-c2coc3c(C(=O)NCCc4ccccc4)cccc23)c(C)c1 returned Env fusion inh 55*, MT1-MMP act inh -3, UUG fidelity -31 and MT1-MMP act inh RFP -20.
Screening O=C(O)C1=C[C@@H](c2ccc3c(c2)OCO3)C[C@@H](OCc2ccc(CO)cc2)O1 returned Rce1 inhib inactive, CSC inhib -4, PABP polyA inh 4, eIF4H FP inh 2, Env fusion inh 10[16.7 µM], MT1-MMP act inh 4, UUG fidelity 12&-9&-21 and MT1-MMP act inh RFP 3.
For Nc1cc(C(=O)OCC(=O)Nc2ccc(N3CCOCC3)cc2)ccc1Cl the results were CSC inhib -4, Env fusion inh 3, MT1-MMP act inh 2, UUG fidelity -9 and MT1-MMP act inh RFP 6.
Screening COc1cccc2sc(N3CCN(C(=O)C4COc5ccccc5O4)CC3)nc12 (stereo unspecified) returned Rce1 inhib inactive, CSC inhib -6, Env fusion inh -5, MT1-MMP act inh -3, UUG fidelity 2 and MT1-MMP act inh RFP -2.
`Fc1ccc(Sc2cc(Cl)c(-c3ccccc3)nn2)cc1` gave Rce1 inhib inactive, CSC inhib 49, PABP polyA inh -10, eIF4H FP inh -12, MT1-MMP act inh 6, UUG fidelity 8 and MT1-MMP act inh RFP -1.
Screening Cc1cccc(N2CC(C(=O)Nc3ccc(S(=O)(=O)NCC4CCCO4)cc3)CC2=O)c1C (stereo unspecified) returned CSC inhib -12, PABP polyA inh 8, eIF4H FP inh 5, Env fusion inh -2, MT1-MMP act inh -4, UUG fidelity 2 and MT1-MMP act inh RFP -1.
Screening O=C(NCCOc1ccccc1Cl)c1ccc2c(c1)S(=O)(=O)c1cc(Cl)ccc1C2=O returned CSC inhib 2, Env fusion inh -4, MT1-MMP act inh 4, UUG fidelity -15 and MT1-MMP act inh RFP 8.
Screening O=C1[C@@H]2Cc3c([nH]c4ccccc34)C(c3ccc([N+](=O)[O-])cc3)N2C(=O)CN1C1CC1 (stereo partly specified) returned Rce1 inhib inactive, CSC inhib 7, PABP polyA inh -1, eIF4H FP inh -4, Env fusion inh 24, MT1-MMP act inh -19, UUG fidelity 2 and MT1-MMP act inh RFP -10.
Screening Cc1ccc(CNC(=O)c2cc(=O)c3ccccc3o2)cc1 returned Rce1 inhib inactive, CSC inhib -6, PABP polyA inh -2, eIF4H FP inh -19, Env fusion inh -9, MT1-MMP act inh 1, UUG fidelity -13 and MT1-MMP act inh RFP -4.
For CN(CCO)c1ccc(/C=N/Nc2nncc3ccccc23)cc1 the results were Rce1 inhib inactive, CSC inhib 41, PABP polyA inh 3, eIF4H FP inh -1, Env fusion inh 2, MT1-MMP act inh -1, UUG fidelity -49 and MT1-MMP act inh RFP -1.
CCOc1ccccc1C(=O)N(Cc1ccco1)C1CCS(=O)(=O)C1 (stereo unspecified) was read as CSC inhib -3, PABP polyA inh -4, eIF4H FP inh -4, Env fusion inh 27, MT1-MMP act inh -1, UUG fidelity 9 and MT1-MMP act inh RFP 5.
Screening CC(C)(C)CC(=O)N1CCN(Cc2ccc3c(c2)OCO3)CC1 returned Rce1 inhib inactive, CSC inhib -16, PABP polyA inh -4, eIF4H FP inh -4, Env fusion inh -22, MT1-MMP act inh -2, UUG fidelity -7 and MT1-MMP act inh RFP -3.
Screening CC1(C)CC2CC(C)(CN2CC(O)c2ccccc2)C1 (stereo unspecified) returned Rce1 inhib inactive, CSC inhib -9, PABP polyA inh -5, eIF4H FP inh -3, Env fusion inh -4, MT1-MMP act inh -1, UUG fidelity -13 and MT1-MMP act inh RFP 2.
CCN=C1S/C(=C\c2ccc(OC)c(OCC)c2)C(=O)N1CC was read as Rce1 inhib inactive, CSC inhib 13, PABP polyA inh 6 and eIF4H FP inh 2.
Screening CCOC(=O)COn1c(=O)c(-c2cc3ccccc3o2)[n+]([O-])c2ccccc21 returned Rce1 inhib inactive, CSC inhib -13, PABP polyA inh 42*, eIF4H FP inh 64, Env fusion inh -150, MT1-MMP act inh -62, eIF4H FP inh retest 15, PABP polyA inh retest 53* and MT1-MMP act inh RFP -4.
O=C1C2CCCN2C(c2ccc(F)c(F)c2)N1c1cccc(Cl)c1 (stereo unspecified) was read as Rce1 inhib inactive, CSC inhib -1, PABP polyA inh 6, eIF4H FP inh 6, Env fusion inh 3, MT1-MMP act inh 2, UUG fidelity 3 and MT1-MMP act inh RFP 5.
`CC(C)C(NC(=O)OCc1ccccc1)C(=O)NCc1ccc(C(=O)O)cc1` (stereo unspecified) gave Rce1 inhib inactive, CSC inhib 10, PABP polyA inh 3, eIF4H FP inh -9, Env fusion inh -13, MT1-MMP act inh 5 and MT1-MMP act inh RFP 6.
CNC(=O)CC1C(=O)N(c2ccc(Cl)cc2)C(=S)N1NC(=O)c1cccc(F)c1 (stereo unspecified) was read as Rce1 inhib inactive, CSC inhib -9, PABP polyA inh -2, eIF4H FP inh -2, Env fusion inh -49, MT1-MMP act inh -1, UUG fidelity -11 and MT1-MMP act inh RFP 0.
O=[N+]([O-])c1cccc(/C=N\N2CCN(c3ccc(Cl)cc3)CC2)c1 was read as Rce1 inhib inactive, CSC inhib 0, PABP polyA inh inconclusive, eIF4H FP inh -3, MT1-MMP act inh 7, UUG fidelity -9 and MT1-MMP act inh RFP 1.
For CC(C)c1ccc(N(CC(=O)N2CCN(Cc3ccccc3)CC2)S(C)(=O)=O)cc1 the results were CSC inhib -11, PABP polyA inh -6, eIF4H FP inh -5, Env fusion inh -5, MT1-MMP act inh 2, UUG fidelity -20 and MT1-MMP act inh RFP -1.
`N#CCc1c(C#N)c(N)nc(N2CCN(S(=O)(=O)c3ccccc3F)CC2)c1C#N` gave Rce1 inhib inactive, CSC inhib 2, PABP polyA inh -2, eIF4H FP inh -44, Env fusion inh -4, MT1-MMP act inh -9, UUG fidelity -18 and MT1-MMP act inh RFP -6.
Screening COCCN(CCOC)S(=O)(=O)c1ccc(C(=O)NC2CCN(Cc3ccccc3)CC2)cc1 returned Rce1 inhib inactive, CSC inhib -4, PABP polyA inh 7, eIF4H FP inh 5, MT1-MMP act inh 9, UUG fidelity 3 and MT1-MMP act inh RFP -10.
Screening Cc1cccc(NC2=C(NC(=O)c3ccccc3)C(=O)c3ccccc3C2=O)c1 returned Rce1 inhib inactive, CSC inhib 16, PABP polyA inh 2, eIF4H FP inh 16, Env fusion inh 10, MT1-MMP act inh -2, UUG fidelity -21 and MT1-MMP act inh RFP -2.
For CCC(=O)Nc1cccc(NC(=O)c2ccccc2Cl)c1 the results were Rce1 inhib inactive, CSC inhib -14, PABP polyA inh 10, eIF4H FP inh 4, Env fusion inh -12, MT1-MMP act inh -1 and MT1-MMP act inh RFP 2.
Cc1ccc([N+](=O)[O-])cc1NC(=O)CSc1n[nH]c(-c2cccnc2)n1 was read as Rce1 inhib inactive, CSC inhib -3, PABP polyA inh -4, eIF4H FP inh -14, Env fusion inh 6, MT1-MMP act inh 0, UUG fidelity -11 and MT1-MMP act inh RFP -2.
`CCC(=O)Nc1nnc(S(=O)(=O)N(CC)c2ccc(Cl)cc2)s1` gave Rce1 inhib inactive, CSC inhib -2, PABP polyA inh 4, eIF4H FP inh 1, Env fusion inh -6, MT1-MMP act inh 5, UUG fidelity 2 and MT1-MMP act inh RFP -3.
For COC(=O)CNC(=S)NC(=O)c1ccc(C(C)(C)C)cc1 the results were Rce1 inhib inactive, PABP polyA inh -2, eIF4H FP inh -8, Env fusion inh 2, MT1-MMP act inh 2 and MT1-MMP act inh RFP -5.
Screening COC(=O)C[C@H]1C[C@H]2c3cc(NC(=O)Cc4ccncc4)ccc3O[C@H]2[C@@H](CO)O1 returned Env fusion inh -13, MT1-MMP act inh 0, UUG fidelity 5&-10 and MT1-MMP act inh RFP -2.
`Cc1ccc(OCc2nnc(SCC(=O)c3cccc([N+](=O)[O-])c3)n2C)cc1` gave Rce1 inhib inactive, CSC inhib -3, PABP polyA inh 4, eIF4H FP inh 10, Env fusion inh inconclusive, MT1-MMP act inh 11, UUG fidelity -13 and MT1-MMP act inh RFP 0.
`Cc1ccc(OCC(=O)NNC(=O)CSC(=S)N2CCCC2)cc1` gave Env fusion inh -6, MT1-MMP act inh 2, UUG fidelity -32 and MT1-MMP act inh RFP 1.
`CCOc1ccc2oc(C(=O)Nc3ccc(N4CCOCC4)cc3)c(C)c2c1` gave Rce1 inhib inactive, PABP polyA inh -3, eIF4H FP inh 1, Env fusion inh -34, MT1-MMP act inh 4, UUG fidelity -13 and MT1-MMP act inh RFP 1.
Screening CNC(=O)N(O)C1N(/N=C/c2ccc(SC)cc2)C(=S)SC1(C)C (stereo unspecified) returned Rce1 inhib inactive, CSC inhib -16, PABP polyA inh -1, eIF4H FP inh -6, Env fusion inh -21, MT1-MMP act inh 1, UUG fidelity -18 and MT1-MMP act inh RFP -1.
`COc1ccc(-c2nc(CS(=O)CC(=O)NCCN3CCCCCC3)c(C)o2)cc1OC` (stereo unspecified) gave Rce1 inhib inactive, CSC inhib 9, PABP polyA inh 8, eIF4H FP inh 48, Env fusion inh -6, MT1-MMP act inh 4, UUG fidelity -2 and MT1-MMP act inh RFP 3.
CCN1CCN(CCCNC(=O)C2CCCN(c3nc4c(C)cc(C)cc4s3)C2)CC1 (stereo unspecified) was read as Rce1 inhib inactive, CSC inhib -8, PABP polyA inh -6, eIF4H FP inh 0, Env fusion inh 6, MT1-MMP act inh 2, UUG fidelity -3 and MT1-MMP act inh RFP 3.

By substructure, the compounds so far with an NH in an aromatic ring (three)
For COc1cc(NC(=O)C2CCN(S(=O)(=O)c3cnc[nH]3)CC2)cc(OC)c1OC the results were Rce1 inhib inactive, PABP polyA inh 0, eIF4H FP inh 1, Env fusion inh -42, MT1-MMP act inh 10 and MT1-MMP act inh RFP -2.
Screening O=C1[C@@H]2Cc3c([nH]c4ccccc34)C(c3ccc([N+](=O)[O-])cc3)N2C(=O)CN1C1CC1 (stereo partly specified) returned Rce1 inhib inactive, CSC inhib 7, PABP polyA inh -1, eIF4H FP inh -4, Env fusion inh 24, MT1-MMP act inh -19, UUG fidelity 2 and MT1-MMP act inh RFP -10.
Cc1ccc([N+](=O)[O-])cc1NC(=O)CSc1n[nH]c(-c2cccnc2)n1 was read as Rce1 inhib inactive, CSC inhib -3, PABP polyA inh -4, eIF4H FP inh -14, Env fusion inh 6, MT1-MMP act inh 0, UUG fidelity -11 and MT1-MMP act inh RFP -2.

Assay outcomes: PubChem BioAssay, several laboratories
